Choline anaer gr – growth inhibitors of anaerobic choline-fed gram-negatives, minimal medium, absorbance; Gram-negative bacterium anaerobic choline minimal medium; active compounds read low; many inactives read as strong as hits in the columns shown; hit rate 0.2% among 55,000; AID 1963822, 2024; calls only;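 active = growth z-score on choline under -2 at 7 or 20 h with little or no fall on glycerol, limits in tiers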;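 note: stock transfer was 300 nL into about 50 µL; the organism is E. coli; final concentration not given here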
Choline anaer gr early – recorded beside Choline anaer gr, whose call it bears; z-score; measured here: choline growth z-score, timepoint 1;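 score of optical density at 7 h as mean of two plates; lower means less growth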
An asterisk follows results filed as active; i = inactive; & = joins results of further samples.

SMILES	Choline anaer gr	Choline anaer gr early
C#CCOc1cccc(C2CC(=O)Nc3c2c(C)nn3-c2ccc3nnc(C)n3n2)c1 (stereo not given)	i	-1.4
Cc1nn(C)c(C)c1CNc1nc(-c2ccncc2)nc2c1CCC2	i	0.33
CCn1c(=O)c2sc(N3CCCC3)nc2n(CC(=O)Nc2ccc(C(C)C)cc2)c1=O	i	0.71
Cn1cnc2cc(-c3noc(-c4ccc(Br)o4)n3)ccc21	i	1.7
Cc1ccc(CN2C(=O)C3CCCCC3C2=O)cc1S(=O)(=O)Nc1cccc(Cl)c1 (stereo not given)	i	-0.67
Cc1ccc(Cl)cc1N1CCN(C(=O)CN2C(=O)c3ccccc3Sc3ncccc32)CC1	i	0.54
NC(=O)c1c(NC(=O)CS(=O)(=O)c2ccc(Cl)cc2)sc2c1CCCC2	i	0.92
O=C(O)CCc1ccc(-c2ccccc2)n1-c1cccc(C(=O)O)c1	i	0.22
CCc1ccc(C2=C(C)C(=O)N(CC(=O)Nc3ccc(Br)cc3F)S2(=O)=O)cc1	i	0.02
COC(=O)c1ccc2c(=O)n(CCC(=O)N3CCc4ccccc4C3)c(=S)[nH]c2c1	i	-0.66
Cc1ccccc1C1CC(=O)c2cnc3c(-c4ccc(F)cc4)c(C)nn3c2C1 (stereo not given)	i	0.27
O=C(CN1CCCN(Cc2ccc(F)cc2)S1(=O)=O)Nc1ccc2c(c1)OCCO2	i	-0.31
COc1ccc(C(=O)NCCc2csc3nc(-c4ccccc4C)nn23)cc1	i	-0.2
Cc1cc(C)c(S(=O)(=O)N2CCc3nc(N4CCCCC4)ncc3C2)c(C)c1	i	0.33
O=C(Nc1ccc2c(c1)OCO2)c1cc2ccc3cccnc3c2[nH]1	i	0.76
C=CCN1CCN(C(=O)C2CCN(c3nc(NC(C)=O)c(C(=O)N4CCCC4)s3)CC2)CC1	i	0.31
O=C(Cn1nc2n(Cc3ccccc3)c(=O)c3ccccc3n2c1=O)NCc1ccccc1	i	0.94
C=CCn1c(=O)c2ccc(C(=O)NC(C)C)cc2n2c(=O)n(CC(=O)NC3CCCCC3)nc12	i	-0.15
O=C(NC1CCCCC1)c1ccc(-n2nc(OCc3cccc(F)c3)ccc2=O)cc1	i	-1.5
O=C(Oc1ccc2oc(=O)sc2c1)c1sc2ccccc2c1Cl	i	-1.3
CCCCC[C@H](O)/C=C/[C@H]1[C@H](O)CC(=O)[C@@H]1CCCCCCCO	i	-0.63
CCn1cnc(S(=O)(=O)N2CCC(C(=O)NC3CCCCC3)CC2)c1	i	0.47
CCC(C)NC(=O)COc1cc(C)c2c(C)nn(C)c2n1 (stereo not given)	i	0.3
Cc1ccc(CNC(=O)Cn2nnc(C(=O)Nc3cccc(C)c3C)c2N)cc1	i	-0.67
CCOc1c(Nc2cc(Cl)ccc2C)c(=O)c1=O	i	-0.59
CCCCc1c(C)[nH]n(-c2nc(C)c(C(=O)NC(C)C)s2)c1=O	i	0.78
Cc1cc(C(=O)Nc2ccc(C)c(F)c2)n[nH]1	i	-0.35
CC(C)CCn1c(=O)c2ccc(C(=O)NC(C)C)cc2n2c(=O)n(CC(=O)NC(C)(C)C)nc12	i	-0.75
CCOc1ccc(-n2c(=S)sc3c(=O)[nH]c(SCC(=O)N(CC)CC)nc32)cc1	i	-0.59
CCCc1nc2c(c(=O)n1CC(=O)Nc1cc(C)on1)CCN(Cc1ccccc1)C2	i	0.53
Cc1nn(CCCC(=O)N2CCN(c3cccc(Cl)c3)CC2)c(=O)c2c1sc1ccccc12	i	0.09
COc1cc(OC)cc(-c2noc(-c3cn(C)c4cc(N5CCOCC5)c(F)cc4c3=O)n2)c1	i	0.24
Cc1cc(SCC(=O)Nc2ccccc2Cl)nc2ccc(S(=O)(=O)N3CCCC3)cc12	i	1.4
O=C(Oc1ccccc1)C1CCN(c2nc3ccccc3[nH]2)CC1	i	-1.1
CCN(CC)CCn1c(NCc2ccc(N(C)C)cc2)nc2ccccc21	i	0.02
COc1ccccc1CNC(=O)C1(C)Cn2c(cc3ccsc32)C(=O)N1c1ccc(Cl)cc1C (stereo not given)	i	0.69
O=S(=O)(c1ccccc1)c1nc(-c2ccccc2)oc1NCCc1ccccc1	i	0.86
Cc1noc(-c2cccnc2NCc2ccccn2)n1	i	-1.3
CCOC(=O)c1c(C)[nH]c(C)c1S(=O)(=O)NCCCN1CCc2ccccc2C1	i	-0.64
O=C(Nc1cccc2c1CCCC2)C1CC2CSCN2C12C(=O)Nc1ccccc12 (stereo not given)	i	0.13
CSCC[C@@H](NC(=O)COc1cc(O)c2c(=O)cc(-c3ccccc3)oc2c1)C(=O)O	i	0.62
CCN(c1nc2nc(C)c(Cl)c(C)n2n1)S(=O)(=O)c1ccccc1	i	0.37
CN1CCn2c(nc3cccc(Cl)c32)C1	i	-0.8
COc1ccc(NC(=O)Cn2cnc3c(sc4ncccc43)c2=O)cc1Cl	i	0.22
CN(C)C(=O)CN1CCN(c2cc(C(=O)O)c3cc(NC(=O)C4CC4)ccc3n2)CC1	i	-1.7
Cc1ccc(-c2nc3n(c2CNC(=O)c2ccc(C(C)C)cc2)CCS3)cc1	i	0.76
CCCCCCCCCCCCCCCC[N+](C)(C)CCN(Cc1ccc(OC)cc1)c1ncccn1	i	-2.6
COc1cc2c(cc1OC)CN(S(=O)(=O)c1cc(N3C(=O)CCS3(=O)=O)ccc1C)CC2	i	-0.49
O=C(c1cc(-c2cccnc2)n(-c2ccc(F)cc2)n1)N1CCN(c2ccc(F)cc2)CC1	i	-0.73
O=C(NCCCN1CCCC1=O)c1cnc2sc3c(n2c1=O)CCCCC3	i	-1.1
COc1cc(S(=O)(=O)N2CCC(n3c(=O)[nH]c4ccccc43)CC2)ccc1-n1cnnn1	i	0.56
CN(C)[C@@H]1C(=O)C(C(N)=O)=C(O)[C@@]2(O)C(=O)C3=C(O)c4c(O)ccc(Cl)c4[C@@H](O)[C@H]3C[C@@H]12	i	-2.7&-3.5
Cc1ccccc1NC(=O)N(C)CCc1noc(C2CCCCC2)n1	i	-0.62
O=S(=O)(Nc1ccc(-c2nnc(-c3ccccc3)o2)cc1)c1ccccc1	i	-0.43
CCOc1cc(-c2cccc(Cl)c2)nc2ccc(C(=O)N3CCN(c4ccccn4)CC3)cc12	i	3.4
COc1ccc(-n2nnc3c(N4CCN(C(=O)c5cc(OC)cc(OC)c5)CC4)ncnc32)cc1	i	-0.74
Cn1nc(-c2nc(-c3ccccc3)no2)c2c1CCN(S(=O)(=O)c1ccccc1)C2	i	0.22
Cc1ccc(-c2csc3c(=O)n(C)c(SCC(=O)N4CCOc5ccc(C)cc54)nc23)cc1	i	-2.1
COc1ccc(-c2nc3cnc(Br)cn3c2Nc2ccc3c(c2)OCCO3)cc1	i	0.24
O=C(NCc1ccc(-c2nc3ncccc3o2)cc1)C1(c2ccccc2)CCCC1	i	-0.43

Remaining list, next part:
SMILES	Choline anaer gr	Choline anaer gr early
Cc1nc(-c2cc(S(=O)(=O)Nc3ccccc3Cl)c(C)s2)sc1C	i	0.16
C[C@H](CS)C(=O)N1CCC[C@H]1C(=O)O	i	-1.3&0.39&-0.28
Cc1cccc(C)c1NC(=O)C(C)n1nc(C)c(Cc2ccccc2)c1C (stereo not given)	i	-0.77
Cc1cccc(N2CCN(C(=O)C3CCN(S(=O)(=O)c4cccc5cccnc45)CC3)CC2)c1C	i	1.2
Cn1c(C(=O)Nc2ccc(F)cc2F)cc2c(=O)oc3ccccc3c21	i	0.19
CCN1CCN(CCCNC(=O)C(C)N2C(=O)CCCc3ccccc32)CC1 (stereo not given)	i	-0.65
CCc1nnc(-c2coc(S(=O)(=O)N3CCCCC3)c2)o1	i	-0.77
CC1=C(/C=C/C(C)=C\C=C\C(C)=C\C(=O)O)C(C)(C)CCC1	i	0.71
COCCN1CCc2nc(SCc3cc(C)ccc3C)[nH]c(=O)c2C1	i	0.67
CCN1CCN(S(=O)(=O)c2ccc3c(c2)N(C(C)=O)CCCS3)CC1	i	1.4
O=c1[nH]c2cc3c(cc2c(=O)n1CCc1nc(-c2ccc(Br)cc2)no1)OCO3	i	-0.9
O=C(NCCCn1c(-c2ccncc2)nc2cccnc21)Nc1ccc2c(c1)OCCO2	i	-0.35
O=C1COc2cc(S(=O)(=O)N3CCC(C(=O)N4CCN(C5CCCCC5)CC4)CC3)c(Cl)cc2N1	i	-1.4
CCN(CC)CCCCC1CCN(CC(=O)N2c3ccccc3C(=O)Nc3cccnc32)CC1	i	0.15
COCCN1CN=C(Nc2nc(C)c3ccccc3n2)NC1	i	0.25
COc1ccc(C2C(C(=O)N3CCN(c4ccccc4)CC3)c3ccccc3C(=O)N2c2ccc(OC)cc2)cc1 (stereo not given)	i	-0.41
Cc1ccc(COC2CN(C(=O)c3ccc(Cl)cc3)C2)cc1	i	0.99
CC1(C(=O)NC2CCCC2)Cn2c(cc3sccc32)C(=O)N1Cc1cccc(Br)c1 (stereo not given)	i	-2.2
CCn1nnc2c(NCC3CCCO3)ncnc21 (stereo not given)	i	-1.3
Cc1cccc(NC(c2ccc3c(c2)OCO3)c2c(NC(=O)c3ccccc3)sc(C)c2C)n1 (stereo not given)	i	0.26
O=C(NC1CCCCC1)C1CCN(c2ccc3nncn3n2)CC1	i	-0.42
O=C(CN1c2ccccc2S(=O)(=O)c2ccccc21)NCc1ccccc1Cl	i	-0.88
Cc1ccc(-c2noc(-c3cc(-c4ccccc4)n[nH]3)n2)cc1	i	0.92
COc1ccc(NC(=O)C(C)(C)C)cc1CN1CCn2c(nc3ccccc32)C1	i	-1
Cc1sc(-c2ccn[nH]2)cc1NC(=O)C1CCC1	i	0.07
CC(C)CNC(=O)CSc1nc2nc[nH]c2c(=O)[nH]1	i	-0.58
Cc1[nH]c(C)c(S(=O)(=O)N2CCC(C(=O)N3CCN(c4ccc(F)cc4)CC3)CC2)c1C(=O)N1CCCC1	i	-0.98
O=C(NCc1cccc(Cl)c1)c1ccc(NC(=O)N2CCSc3ncccc32)cc1	i	0.08
CC(C)OC(=O)c1ccc(NS(=O)(=O)c2cc(-c3ccc(=O)[nH]n3)ccc2Cl)cc1	i	1.2
CCc1onc(C)c1C1CCCN1C(=O)c1ccco1 (stereo not given)	i	-2
NCCC(O)(P(=O)(O)O)P(=O)(O)O	i	0.54
Cc1cc(N2CCCC2)nc(N2CCN(C(=O)CCC3CCCCC3)CC2)n1	i	-0.25
CCOCCCNC(=O)CCc1nnc2c3cc(-c4ccc(C)c(C)c4)nn3ccn12	i	-1.5
O=C(Nc1ccc(Cl)cc1)Nc1ccc(-c2noc(C3CCC3)n2)cc1	i	-0.08
COc1ccc2[nH]c3nc4ccccc4nc3c2c1	i	1.4
CCCN1C(=O)c2ccccc2Sc2cc(-c3noc(-c4ccnn4C)n3)ccc21	i	0.49
CCC(C)NC(=O)CSc1nnc(-c2cc3ccccc3o2)n1-c1ccccc1 (stereo not given)	i	0.93
Cc1nc2nc3c(c(Nc4ccc5c(c4)OCCO5)n2n1)CCC3	i	-2
O=C(c1ccc(F)c(Cl)c1)N1CCN(c2cc(=O)n3nc(-c4ccccc4)sc3n2)CC1	i	0.25
O=c1ccn(-c2ccc(Cl)cc2)nc1-c1nc(-c2ccccc2Br)no1	i	-0.49
O=S(=O)(NC(c1ccc(Cl)cc1)c1nnc(-c2ccccc2)o1)c1ccc(F)cc1 (stereo not given)	i	1.2
O=C(c1ccc(Br)cc1)N1CCc2c([nH]c3ccccc23)C1c1cccnc1 (stereo not given)	i	-0.25
O=C(NC1CCCC1)c1ccc2c(=O)n(CC3CCCO3)c(SCc3ccccc3)nc2c1 (stereo not given)	i	0.25
Cc1nc2c(C)cccn2c(=O)c1Cc1nnc(SCC(=O)NCc2nc3ccccc3[nH]2)n1C	i	-0.21
CCS(=O)(=O)c1nc2ccc(NS(=O)(=O)c3ccc(OC)cc3)cc2s1	i	-0.28
COc1ccccc1-c1c(C)nn2c(SCC(=O)NCc3ccccc3)cc(C)nc12	i	-1.6
COc1cc(OC)cc(N2C=NS(=O)(=O)c3cccnc32)c1	i	-0.19
Cc1ccc(C)c(S(=O)(=O)NCCc2n[nH]c(Cc3ccc(F)cc3)n2)c1	i	-0.58
N#Cc1nc(-c2ccc(S(=O)(=O)N3CCCCC3)cc2)oc1N1CCOCC1	i	0.7
CCOC(=O)c1c(NC(=O)CCCc2nc(-c3cccnc3)no2)sc(C)c1C	i	-0.57
O=C(CCCn1nnc2cc(S(=O)(=O)N3CCCCC3)ccc21)N1CCN(c2ccccc2)CC1	i	-1.6
CC1=C(c2ccc(C)c(C)c2)S(=O)(=O)N(Cc2ccc(C(=O)NCc3ccccc3F)cc2)C1=O	i	-0.97

Only part of the results is shown (hit frequency here may not be typical).
